Screening results as filed in PubChem BioAssay.
Mtb bLac sens – beta-lactam sensitization of Mtb H37Rv; M. tuberculosis H37Rv growth with meropenem, percent inhibition; hits of this screen are not shown here; hit rate 0.27% among 330,000; inhibition, % at 25 µM;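 active = about 74% or more and at least 40 points above the plate without the antibiotic, then above 30% in a dose series; inconclusive = first-round hits that could not be retested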;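 also: growth measured after seven days incubation then overnight dye step; 0% = bacteria only wells and 100% = bacteria with antibiotic; twin plates without the antibiotic show which effects depend on it; some results filed as inactive read as strong as hits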
Mtb growth – M. tuberculosis H37Rv growth inhibitors, H37Rv strain (AID 1626). one-dose inhibition, % at 10 µM; IC50 in µM for titrated hits. hit rate 0.95% among 220,000. M. tuberculosis H37Rv growth inhibition; higher % means a stronger effect;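 active = confirmed in a dose series; inconclusive = inhibition above 80% but not taken into the dose series; inactive = below 80% or under 30% at every dose of the series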;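 also: bacteria incubated seven days before Alamar blue readout; 0% = bacteria only wells and 100% = bacteria with antibiotic wells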
YopH inh – inhibitors of Yersinia enterocolitica YopH tyrosine phosphatase; fluorescence Ex485/Em525; hit rate 0.16% among 140,000; inhibition, %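 (about 10 µM by stock and volumes)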;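 active = inhibition of 50% or more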;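 also: controls were vehicle for no effect and minimum signal wells for full effect; inactives centre near -20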
RecA intein inh – Mtb RecA intein splicing inhibition; cell-free RecA intein splicing, fluorescence; hit rate 0.75% among 290,000; AID 2221; P9WHJ3; inhibition, %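 (about 9 µM by stock and volumes)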; in the data active = inhibition above about 30%; inconclusive = no clear call, values can overlap the other calls;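 also: 0% = vehicle wells and 100% = reference inhibitor control wells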
Target sequence (P9WHJ3 whole entry, looked up): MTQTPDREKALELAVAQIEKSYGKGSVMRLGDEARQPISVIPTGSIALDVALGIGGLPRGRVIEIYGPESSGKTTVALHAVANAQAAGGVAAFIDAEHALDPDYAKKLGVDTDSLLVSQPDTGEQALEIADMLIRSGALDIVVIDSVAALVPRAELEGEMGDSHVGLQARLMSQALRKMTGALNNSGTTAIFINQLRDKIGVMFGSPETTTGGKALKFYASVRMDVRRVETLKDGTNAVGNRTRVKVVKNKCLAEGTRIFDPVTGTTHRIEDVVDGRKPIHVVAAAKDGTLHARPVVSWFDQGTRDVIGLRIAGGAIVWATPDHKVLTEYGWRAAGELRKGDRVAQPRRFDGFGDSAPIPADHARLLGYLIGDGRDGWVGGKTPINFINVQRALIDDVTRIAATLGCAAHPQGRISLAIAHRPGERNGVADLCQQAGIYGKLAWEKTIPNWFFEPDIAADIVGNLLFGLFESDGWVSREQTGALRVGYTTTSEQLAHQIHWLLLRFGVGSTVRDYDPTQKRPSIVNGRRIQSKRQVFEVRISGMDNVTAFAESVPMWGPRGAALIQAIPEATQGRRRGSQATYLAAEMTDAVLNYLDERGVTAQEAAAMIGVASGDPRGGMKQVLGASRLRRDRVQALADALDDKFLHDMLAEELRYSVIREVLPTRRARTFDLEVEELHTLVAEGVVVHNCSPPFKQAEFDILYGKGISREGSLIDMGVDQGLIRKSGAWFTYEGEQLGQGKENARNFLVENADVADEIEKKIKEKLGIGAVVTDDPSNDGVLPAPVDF
Arbovirus anti – antivirals against arbovirus infection. arbovirus infection cell-based antiviral screen. inhibition, % at 10 µM. hit rate 0.37% among 200,000. AID 1251;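 active = inhibition from about 30%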;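 also: bluetongue infection of BSR cells; cell survival read as ATP light after 72 h; 0% = infected wells without compound and 100% = uninfected wells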
Arbovirus anti repeat – also measured in Arbovirus anti; calls as there; inhibition, %; measured here: 10K subset replicate screen; many hits read low in the repeat;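 first of two repeat runs on a subset; 0% = infected and 100% = uninfected wells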
Numbers without * were called inactive; ? = inconclusive; . = not tested or not shown. A portion of the library; rates above refer to the full screens.

SMILES	Mtb bLac sens	Mtb growth	YopH inh	RecA intein inh	Arbovirus anti	others
Cn1c(=O)cc(OCCCC(=O)Nc2ccc3c(c2)OCCO3)c2ccccc21	6	0%	-18	0.4	-1
COc1ccc(C)c2sc(NNC(=O)COc3ccccc3)nc12	-15	5%	.	-1.5	-5
CCC(C(=O)NCCCN1CC(C)CC(C)C1)n1nc(C)c2sc3ccccc3c2c1=O (stereo not given)	-4	.	.	-1.2	.
CCN(CC)CCOC(=O)C(O)(c1ccccc1)c1ccccc1	-8	-6%	-27	2.0	10
CCN1/C(=C2\OC(=S)N(C)C2=O)Sc2ccccc21	-6	.	-44	-4.8	-3
CC(=O)Nc1ccc(S(=O)(=O)N2CCN(C(=O)c3ncoc3-c3ccccc3F)CC2)cc1	0	.	.	0.8	.
Cc1ccc(Cl)cc1N1CCN(S(C)(=O)=O)CC1	3	-3%	-10	1.3	8
CCOC(=O)C1CCCN(C(=O)c2ccc(C)c(NC(=O)C3=C(C)OCCS3)c2)C1 (stereo not given)	-2	.	.	3.9	.
N#CC1(NC(=O)COC(=O)c2nccnc2N)CCCCC1	-14	.	.	3.0	.
O=C(NCc1ccccn1)C1CCN(S(=O)(=O)N2CCCCC2)CC1	3	12%	-18	1.8	2
O=C(O)CNC(=O)c1ccc(N2CCOCC2)cc1[N+](=O)[O-]	2	4%	.	3.8	20
CCOC(=O)c1sc2nc(SCC(=O)N(CC)CC)n(CCCN3CCCC3=O)c(=O)c2c1C	-3	2%	.	-0.9	-8
CN(C)C(=O)c1cc([N+](=O)[O-])cc([N+](=O)[O-])c1N(C)C	5	-9%	-3	3.6	9
CN(c1ccc(O)cc1)c1nc(-c2ccccc2)cs1	2	13%	-14	.	-34
COc1ccc(C(=O)OCCc2ccc(O)cc2)cc1	-6	-7%	-34	2.3	-9
COc1ccccc1NS(=O)(=O)c1cccc(C(=O)N/N=C/c2c(C)nn(-c3ccccc3)c2N2CCCC2)c1	0	8%	8	1.7	2
O=C(Nc1ccc(Cl)cc1[N+](=O)[O-])c1ccc2c(c1)OCCO2	9	.	.	1.7	.
O=C(CCS(=O)(=O)c1ccccc1)NC1CCCCC1	-1	.	.	-3.0	.
O=C(NCc1ccc2c(c1)OCO2)C1CC(c2cccc(Br)c2)=NO1 (stereo not given)	-5	3%	-16	0.0	-12
COc1ccc(N2CC(C(=O)Nc3ccncc3)CC2=O)cc1 (stereo not given)	-1	.	.	-3.7	.
CN1/C(=C\C(=S)NC(=O)c2cccc(Br)c2)C(C)(C)c2ccccc21	30	-1%	-6	-4.7	8
COc1ccc(-c2nc3nc(SC)nn3cc2C)cc1F	-3	5%	.	-2.7	0
CCOC(=O)CSc1nnc(NC(=O)c2ccc3c(c2)OCO3)s1	90	.	.	-0.8	.
COc1ccccc1N1CCN(c2nc(N)c(C#N)c(CC#N)c2C#N)CC1	25	6%	-32	-2.4	3	Arbovirus anti repeat=0
COc1ccccc1NC(=S)N1CCN(c2ccc(F)cc2)CC1	4	.	.	-1.2	.

In the list so far, these contain a cyano group.
SMILES	Mtb bLac sens	Mtb growth	YopH inh	RecA intein inh	Arbovirus anti	others
N#CC1(NC(=O)COC(=O)c2nccnc2N)CCCCC1	-14	.	.	3.0	.
COc1ccccc1N1CCN(c2nc(N)c(C#N)c(CC#N)c2C#N)CC1	25	6%	-32	-2.4	3	Arbovirus anti repeat=0

Returning to the listing with the four entries that preceded the break.
SMILES	Mtb bLac sens	Mtb growth	YopH inh	RecA intein inh	Arbovirus anti	others
COc1ccc(-c2nc3nc(SC)nn3cc2C)cc1F	-3	5%	.	-2.7	0
CCOC(=O)CSc1nnc(NC(=O)c2ccc3c(c2)OCO3)s1	90	.	.	-0.8	.
COc1ccccc1N1CCN(c2nc(N)c(C#N)c(CC#N)c2C#N)CC1	25	6%	-32	-2.4	3	Arbovirus anti repeat=0
COc1ccccc1NC(=S)N1CCN(c2ccc(F)cc2)CC1	4	.	.	-1.2	.
COc1cccc2cc(C(=O)CS(=O)(=O)c3ccc(C(C)(C)C)cc3)c(=O)oc12	-11	.	.	-2.0	.
CC(C(=O)N1CCCC1)N(c1ccccc1)S(C)(=O)=O (stereo not given)	-9	.	.	-0.6	.
Cc1ccccc1C(=O)Oc1cc(N)n(S(=O)(=O)c2ccccc2)n1	-9	2%	.	3.3	-2
CCCCc1nc2cc(C(=O)N3CCC(OCCOC)CC3)ccc2o1	1	.	.	16	.
O=c1[nH]n2cc(-n3cc([N+](=O)[O-])cn3)cnc2c1Br	-3	-3%	.	0.9	6
CC(C)=CCC1=C(OCC(=O)O)C(=O)c2ccccc2C1=O	3	.	.	63*	.
O=C(NC1CC1)c1nc(Cn2cc([N+](=O)[O-])cn2)no1	-1	.	.	-0.9	.
CC1=CC(=O)CC2C1(C)CCC(C)C2(C)CCC(C)CC(=O)O (stereo not given)	-14	-8%	.	-0.8	.
N#Cc1ccc(OCC(=O)NCC(c2cccs2)N2CCOCC2)cc1 (stereo not given)	-17	.	.	1.0	.
COC(=O)[C@H](C)NC(=O)NCc1ccc(S(N)(=O)=O)cc1	5	-7%	.	1.7	.
CC(=O)NC1C(=O)Nc2c(C)cc(C)cc21 (stereo not given)	0	-5%	-27	-0.2	4
Cc1nc2ccc(S(=O)(=O)NCC(=O)N3CCOCC3)cc2s1	-4	-12%	-30	0.7	-8
CCC(=O)Nc1ccccc1-c1nnn(CC(=O)N2c3ccccc3CC2C)n1 (stereo not given)	5	11%	-18	-1.6	-5
COc1ccccc1OCC(=O)Nc1ccccc1C(=O)N1CCCCC1	?	.	.	2.5	.
CCOC(=O)COc1ccc(S(=O)(=O)N2CCN(c3ccccc3F)CC2)cc1	10	3%	-78	3.5	6
CCOc1ccc(C(=O)NCCCN(CC)CC)cc1	6	-10%	-22	-0.6	7
CCN(CC(=O)Nc1cc(Cl)ccc1C)C(=O)C1CC(=O)N(Cc2ccccc2)C1 (stereo not given)	-10	.	.	4.5	.
O=C(c1ccc(-c2ccccc2)c(F)c1)C1CCCN(CCCn2cccn2)C1 (stereo not given)	0	19%	.	-1.5	.
Cc1cc(N=Nc2ccc(Cl)cc2)cc(CN2CCCC2)c1O	0	5%	.	9.4	.
CCCCCN(C(=O)CCC(=O)OCCOc1ccc(OC)cc1)c1c(N)n(CCCC)c(=O)[nH]c1=O	-9	.	.	-5.8	.
c1ccc(-c2nnc3sc(CN4CCc5ccccc54)cn23)cc1	-3	19%	-34	-0.2	-38
C=CCSc1nc2c(c(C3CC=CCC3)c1C#N)CCC2 (stereo not given)	5	16%	-14	-0.6	-6
CCCCn1c(/N=C/c2ccc3c(c2)OCO3)nc2ccccc21	-4	1%	-3	-1.4	12
Cc1cc(Br)cc(C)c1OCC(=O)NNC(=O)c1cccs1	5	.	.	-2.2	.
COc1ccc(C(=O)Nc2ccccc2)cc1NC(=O)c1cccs1	43	.	.	-1.7	.

Following part:
SMILES	Mtb bLac sens	Mtb growth	YopH inh	RecA intein inh	Arbovirus anti	others
O=C(COc1cccc(C(F)(F)F)c1)NCCCN1CCCC1=O	13	-8%	-4	1.7	8
CCOc1ccc(-c2nc(-c3ccccc3C)no2)cc1	.	18%	-29	2.8	.
CCOc1ccc2[nH]c(=O)c(C(c3nnnn3CC3CCCO3)N3CCc4ccccc4C3)cc2c1 (stereo not given)	-10	-3%	2	.	-2
COc1ccc(C(=O)c2c3ccc(C(F)(F)F)cc3[n+]([O-])n2CCCC(N)=O)cc1	-2	.	.	0.5	.
CCOC(=O)c1ccc(NC(=O)C23CCC(C)(C(=O)O2)C3(C)C)cc1 (stereo not given)	-6	-10%	-24	-2.9	4	Arbovirus anti repeat=8
CCC1Oc2ccccc2N(CC(=O)NC2CCCCC2C)C1=O (stereo not given)	-1	.	.	0.1	.
Cc1ccc(-c2noc(/C=C/c3ccccc3)n2)cc1	7	11%	-25	-0.5	4
Cc1nc2cc(Nc3nnc(-c4ccccc4)c4ccccc34)ccc2n1C	18	13%	-35	1.0	-24
Cn1c(=O)c2c(nc(Oc3ccc4c(c3)OCO4)n2Cc2ccc(Br)cc2)n(C)c1=O	4	-3%	.	-1.4	.
CSc1nnc(-c2sc3cc(C(F)(F)F)cnc3c2-c2cccnc2)n1C	2	-4%	-15	1.2	-22
CCOc1ccc(N(CC(=O)NCc2ccc(F)cc2)C(=O)c2ccco2)cc1	4	.	.	-1.2	.
Cc1ccc(S(=O)(=O)n2ccc(-c3ccc(OCc4c(F)cccc4Cl)cc3)n2)cc1	5	-4%	-26	2.9	4
CCCCN(CC)C(=O)Cn1nc(Cc2ccncc2)c2ccccc2c1=O	4	.	.	-0.9	.
CC(=O)Nc1cc(C(=O)N2CCN(C)CC2)ccc1Sc1ccc(C)cc1	-8	-3%	-24	.	4
COc1ccc(CC(=O)NCC2CCCN(Cc3cccc(C(F)(F)F)c3)C2)cc1 (stereo not given)	0	.	.	6.8	.
Cc1cc(NC(=O)c2ccccc2)ncc1NC(=O)c1ccco1	-6	1%	6	5.3	-7
CC1CCN(C2(O)C(=O)Nc3ccc(Br)cc32)CC1 (stereo not given)	0	1%	.	1.6	-7
Cc1ccc(S(=O)(=O)N2c3ccccc3-c3c(ssc3=S)C2(C)C)cc1	4	1%	-7	2.0	-12
O=C(NCCOc1ccccc1F)c1cc([N+](=O)[O-])ccc1N1CCOCC1	?	.	.	3.8	.
Cc1c(Cl)cccc1-c1ccc(/C=N/n2cnnc2)o1	54	12%	3	5.3	8
CCOC(=O)C1CCN(C(=O)CN2C(=O)c3cccnc3Oc3ccccc32)CC1	?	.	.	1.4	.
CCc1ccc2oc(-c3ccc(OC)cc3)cc(=Nc3c(C)n(C)n(-c4ccccc4)c3=O)c2c1	99	0%	.	3.3	-18
CCCCNC(=O)COC(=O)c1cc(C)nc2ccccc12	3	-3%	-1	1.1	7
Cc1ccc2c(c1)C(=C(C#N)C#N)C(=O)N2CCN1CCCCC1	-1	4%	.	8.9	.
Cc1cc(NC(=O)c2c(F)c(F)c(F)c(F)c2F)no1	3	-1%	-16	0.8	6

Next section
SMILES	Mtb bLac sens	Mtb growth	YopH inh	RecA intein inh	Arbovirus anti	others
Cc1cc(C)nc(N2CCCC(C(=O)NNC(=O)c3ccncc3)C2)n1 (stereo not given)	-4	-4%	.	-0.7	.
O=C(Nc1nnc(CSCc2ccccc2F)s1)c1cccc([N+](=O)[O-])c1	-8	9%	-21	0.8	16
CN(Cc1ccccc1)C(=O)COc1cc(Cl)ccc1Cl	-6	.	.	4.2	.
Cc1c(C(=O)OC/C(O)=C(\C#N)c2nc3ccccc3[nH]2)oc2ccc(Br)cc12	?	8%	.	4.9	.
CC(C)(C)N1C(=O)[C@H]2[C@@H](c3ccc(Br)cc3)N3C(=O)N(c4cccc(F)c4)C(=O)[C@@]3(C)[C@H]2C1=O	2	.	.	-0.3	.
CC(C)NC(=O)C(=O)Nc1cc2c3c(c1)CCC(=O)N3CCC2	-4	.	.	-0.4	.
COC(=O)c1ccc(NC(=O)CCCCCn2nnc3ccccc3c2=O)cc1	5	.	.	1.8	.
O=C(C1=C[C@@H](c2ccc(C(F)(F)F)cc2)C[C@@H](OCc2ccc(CO)cc2)O1)N1CCN(Cc2ccc3c(c2)OCO3)CC1	4	-9%	.	6.1	-13
CCC(C(=O)NC1CCCCC1)n1c2ccccc2c2nc(=O)cc(C)n21 (stereo not given)	5	.	.	0.4	.
NC(=O)C1CCN(CC(=O)Nc2cccnc2Cl)CC1	-1	-3%	.	-2.4	1
CCN(CC)C(=O)C(=O)c1cn(CCOc2ccccc2)c2ccccc12	-4	10%	.	-2.3	0
NC(=O)c1cc(-c2ccccc2)sc1NC(=O)Cc1ccc(S(=O)(=O)N2CCOCC2)s1	-7	1%	-23	-1.4	-2
CN1CCCC(CN2c3ccccc3Sc3ccccc32)C1 (stereo not given)	-4	.	.	-0.5	.

Six records drawn at random from those above:
SMILES	Mtb bLac sens	Mtb growth	YopH inh	RecA intein inh	Arbovirus anti	others
COC(=O)c1ccc(NC(=O)CCCCCn2nnc3ccccc3c2=O)cc1	5	.	.	1.8	.
CN1CCCC(CN2c3ccccc3Sc3ccccc32)C1 (stereo not given)	-4	.	.	-0.5	.
CC(C)(C)N1C(=O)[C@H]2[C@@H](c3ccc(Br)cc3)N3C(=O)N(c4cccc(F)c4)C(=O)[C@@]3(C)[C@H]2C1=O	2	.	.	-0.3	.
CN(Cc1ccccc1)C(=O)COc1cc(Cl)ccc1Cl	-6	.	.	4.2	.
O=C(Nc1nnc(CSCc2ccccc2F)s1)c1cccc([N+](=O)[O-])c1	-8	9%	-21	0.8	16
CCC(C(=O)NC1CCCCC1)n1c2ccccc2c2nc(=O)cc(C)n21 (stereo not given)	5	.	.	0.4	.
